TRPV1 potentiator = enhances activation of the human vanilloid receptor TRPV1; Q8NER1; TRPV1-expressing cells, Fluo-8 calcium influx, capsaicin EC20 potentiation; host cell line not named in the record; control for the full effect not named in the record; potentiation, % at 8.33 µM; 0.02% of 320,000 active; active means potentiation above 80%; inconclusive means 30% to 80%; inactive means below 30%; also: 0% is about no effect
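Fluo-8 calcium influx in TRPV1-expressing cells, kinetic read (ex 480/em 520 nm). Compound added and read 3 min for agonist activity, followed by capsaicin at EC20 final and 2 min further read for enhancement.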
PINK1 expr mod = changes PINK1 expression. PINK1 immunofluorescence, high-content cytometry, 24 h. Potency, µM (top dose mostly 76.6 µM), for inactives: at the highest dose activation (PINK1 increase), most hits filed as activators. 0.2% of 410,000 active; active = well fitted activation curve with a large enough effect; inconclusive = small, poorly fitted or top-dose-only effect; inactive = flat fitted curve, though single readings scatter; cell line not stated here;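 also: potency is read from the fitted curve at half-maximal effect; % of control where 0% means no effect; nearly all actives have a fitted effect of over 65% in size; a mitochondrial uncoupler was the plate control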
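Measures PINK1 amount and localization on or inside mitochondria by immunofluorescence. Stable cells get compounds at 5 concentrations for 24 hours before fixation and staining; CCCP controls included.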
Menin MLL FP FL = menin-MLL binding inhibition, fluorescein peptide; Fluorescence polarization, fluorescein-MLL peptide displacement from menin; FP activity change, % at 61.4 µM; 290,000 tested, under 10 active; AID 1766; inconclusive = falling polarisation curve, or a change in total fluorescence; inactive = total fluorescence flat and polarisation flat or rising; no compound was filed as active; the % refers to the polarisation; negative = inhibition;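 also: % of control where 0% means no effect; inhibitors lower the polarisation; unlabelled MLL peptide was the positive control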
TRPML1 agonist = human mucolipin-1 channel agonism. Q9GZU1. TRPML1-expressing cells, Ca2+ dye fluorescence, FDSS; host cell line not named in the record; reference of the full effect not given here. activation, % (no concentration beside the values). 0.12% of 410,000 active. AID 624414; in the data active = activation above about 50%; inconclusive = about 30% to 50%; inactive = below about 30%; also: 0% is about no effect; the text of the record puts the active cut at 80%
Target sequence (Q9GZU1 whole entry, looked up): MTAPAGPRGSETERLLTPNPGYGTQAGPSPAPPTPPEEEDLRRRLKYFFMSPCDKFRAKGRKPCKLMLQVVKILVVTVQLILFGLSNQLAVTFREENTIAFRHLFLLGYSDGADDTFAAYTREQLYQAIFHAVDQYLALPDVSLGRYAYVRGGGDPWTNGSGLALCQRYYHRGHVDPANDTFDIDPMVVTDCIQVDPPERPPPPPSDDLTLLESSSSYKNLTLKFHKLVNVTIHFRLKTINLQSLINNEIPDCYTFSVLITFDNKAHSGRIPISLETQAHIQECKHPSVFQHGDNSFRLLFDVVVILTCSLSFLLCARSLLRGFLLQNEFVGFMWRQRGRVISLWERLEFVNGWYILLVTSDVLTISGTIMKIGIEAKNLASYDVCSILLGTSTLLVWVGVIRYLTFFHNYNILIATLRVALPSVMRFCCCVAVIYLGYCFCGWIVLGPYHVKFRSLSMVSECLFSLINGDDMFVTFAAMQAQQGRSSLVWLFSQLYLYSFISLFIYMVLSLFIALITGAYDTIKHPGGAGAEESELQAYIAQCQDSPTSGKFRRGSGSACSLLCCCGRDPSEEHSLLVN
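Cells: TRPML1-DL, 1X Tet inducer, ~16 h at 37 degrees C/5% CO2. Dye: ABD Ca8 no-wash + quencher, 45-90 min RT. Read: 10 s baseline, compound add, 110 s agonist phase; 54-4 EC80 (4uM final), 110 s antagonist phase.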
ClpP mod = qHTS Assay for Activators of ClpP | ATP-dependent Clp protease proteolytic subunit (Bacillus subtilis (strain 168)), P80244 | purified B. subtilis ClpP, FRET peptide cleavage, 20 min | Potency, µM (titrated, usually from 57.5 µM), for inactives: top-dose activity change, negative = active | 1.9% of 340,000 active | AID 651965, 2013; active = well fitted falling curve with a large enough effect; inconclusive = small, poorly fitted or top-dose-only effect; inactive = no such curve, though single readings can be large or run the other way; also: potency is read from the fitted curve at half-maximal effect; the source files actives as falling curves though it sought activators and does not explain the sign; nearly all actives have a fitted effect of over 65% in size; many hits overshoot -100%
Target sequence (P80244 whole entry, looked up): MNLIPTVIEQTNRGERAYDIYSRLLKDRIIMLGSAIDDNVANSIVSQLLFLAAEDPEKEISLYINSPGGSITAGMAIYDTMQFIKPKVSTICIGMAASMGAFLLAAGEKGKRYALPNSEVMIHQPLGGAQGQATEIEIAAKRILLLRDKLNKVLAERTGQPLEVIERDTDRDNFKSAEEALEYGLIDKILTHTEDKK
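Purified B. subtilis ClpP, 10 microg/mL final in Tris/HCl pH8 with KCl, BSA, glycerol and Tween-20, cleaved an Abz/nitrotyrosine-quenched decapeptide. Fluorescence (ex 320, em 430) was read at 0 and 20 min at room temperature. Delta was normalized to 5.8 microM ADEP and DMSO/no-enzyme controls.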
Sfp PPTase inh = Sfp phosphopantetheinyl transferase inhibition; AID 1490; Biochemical Sfp PPTase activity, qHTS; Q9F4F7; 3.5% of 310,000 active; Potency, µM, for the others: max response, negative = inhibition, actives largely listed as inhibitors; active = well fitted inhibition curve with a large enough effect; inconclusive = small, poorly fitted or top-dose-only effect, or another doubt; inactive = no such curve, though single readings can be large or run the other way;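 also: the enzyme is Sfp with the accession as filed and its product quenches rhodamine fluorescence; potency is read from the fitted curve at half-maximal effect; 0% = enzyme reaction without inhibitor and -100% = no enzyme wells; top concentration of the series not given in the record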
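Step 1, compound plus 15 nM Sfp-PPTase, 15 min, room temperature. Step 2, add rhodamine-CoA (5 uM) and BHQ-2-YbbR (12.5 uM). Step 3, read 525/598 nm fluorescence at 0 and 30 min.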
TRPML1 blocker = human mucolipin-1 channel inhibition | activity change, negative = inhibition, % (no concentration beside the values) | 0.02% of 390,000 active | TRPML1-inducible cells, Ca2+ dye fluorescence, FDSS; hits give low values; inhibition of EC80 agonist-evoked calcium signal; in the data active means activity change below about -50%; inconclusive means about -30% to -50%; inactive means above about -30%;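 also: stimulus is agonist 54-4 at its EC80 concentration; % is scaled to controls: 0 for no effect and ±100 for the full control effect; compound concentration not given in the record; the text of the record puts the active cut at -80%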
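Calcium fluorescence in TRPML1-DL cells induced overnight with Tet: a 110 s read after compound pin addition, then a 110 s antagonist read after challenge with 54-4 at 4 uM final (EC80).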
Numbers without * were called inactive; ? = inconclusive; nt = no result given; & = joins results of further samples; [ ] = remark or other dose.

SMILES	TRPV1 potentiator	PINK1 expr mod	Menin MLL FP FL	TRPML1 agonist	ClpP mod	Sfp PPTase inh	TRPML1 blocker
COc1ccccc1-c1cc2nc(C)c(CCC(=O)NC(C)CCc3ccco3)c(C)n2n1 (stereo not given)	-12	2.0%	0.3	-1.4	-14%	-1%	2
C/C(CC(=O)Nc1ccc(N(C)C)cc1)=N\NC(=O)c1ccncc1	-22	-1.2%	-2.5	0.4	nt	-5%	32
CCOC(=O)C1CCN(C(=O)COc2ccc([N+](=O)[O-])cc2)CC1	-8	-0.1%	-4.5	0.1	nt	6%	-11
CC(=O)Nc1nnc(CSCc2ccccc2F)s1	?	-0.9%	3.1	2.5	nt	6%	-30
CCN(CC)C(=S)SC1=CCS(=O)(=O)C1	23	0.0%	-2.0	-0.4	nt	79µM*	-6
c1ccc2[nH]c(CSc3nc4ccccc4o3)nc2c1	-17	nt	1.4	0.7	-4.7%	-16%	-2
COc1ccccc1N1CC(C(=O)OCC(=O)Nc2cc(C)on2)CC1=O (stereo not given)	-1	-0.7%	nt	1.0	nt	nt	5
NC(=O)c1nsc(C(=O)N(c2cccc(F)c2)C(C(=O)NCC2CCCO2)c2ccc3ncccc3c2)c1N (stereo not given)	-8	2.3%	0.3	0.4	nt	10%	37
Cc1noc(C)c1S(=O)(=O)N(C)C[C@H]1Oc2c(NC(=O)Nc3ccccc3)cccc2C(=O)N([C@H](C)CO)C[C@@H]1C	nt	0.1%	nt	0.4	-1.7%	nt	15
O=C(Nc1ccc(S(=O)(=O)NC2=NCCCCC2)cc1)c1ccc(Cl)c([N+](=O)[O-])c1	nt	-0.1%	nt	3.0	1.5%	nt	46
O=C(N/N=C/C(Br)=C\c1ccccc1)c1n[nH]c2c1CCC2	3	?	4.0	0.0	-6.9%	28µM*	19
COc1ccc(CN(CC(=O)NCc2ccc(F)cc2)C(=O)CCC(=O)Nc2cc(C)ccn2)cc1	0	1.4%	1.0	0.1	nt	16%	4
CCCCn1ccnc1C(=O)c1cc(S(=O)(=O)N2CCOCC2)ccc1C	-11	15%[38.3 µM]	-2.7	0.5	1.7%	9%	19
CCOC(=O)c1ccc(NC(=S)NCCc2ccc(OC)c(OC)c2)cc1	-9	0.2%	3.3	1.6	nt	1%	13
O=C1[C@H]2[C@@H](c3ccc(C(F)(F)F)cc3)N[C@]3(CCCN(CC4CCCCC4)C3=O)[C@H]2C(=O)N1Cc1ccccc1	nt	3.5%	nt	1.0	-1.2%	nt	?
Cc1ccccc1/C=N/n1c(C2CCCCC2)n[nH]c1=S	24	7.0%	0.1	2.8	1.1%	0%	-12
CCOC(=O)CSc1nc2cc3c(cc2c(=O)n1CCCC(=O)NCc1ccc2c(c1)OCO2)OCO3	nt	-0.4%	nt	4.3	5.5%	nt	14
COc1cccc(OC)c1NC(=O)Cc1nn(C)c(=O)c2ccccc12	-7	-1.8%	2.0	0.2	-3.7%	-19%	-8
Cc1c(CNCc2cccs2)c(C(=O)O)c(C)n1Cc1ccccc1	-6	1.4%	-1.6	-0.2	4.8%	-6%	0
COc1cccc(CNC(=O)c2ccc(NC3=NC4CS(=O)(=O)CC4S3)cc2)c1 (stereo not given)	-1	-0.2%	nt	-0.4	1.8%	9%	-1
O=C(CNC(=O)N1CC(=O)Nc2ccccc21)Nc1ccc(Br)cc1F	nt	-0.1%	nt	-0.7	-1.2%	nt	-12
Nc1ccccc1NC(=O)CCn1c(=S)[nH]c2ccccc2c1=O	3	0.3%	nt	0.4	-2.1%	11%	15
O=C(CN(Cc1ccccc1Cl)C(=O)c1csnn1)NCCc1ccccc1	0	3.3%	-6.6	-0.5	nt	0%	-11
NC(=O)c1ccc[n+](CC(=O)OCCC23CC4CC(CC(C4)C2)C3)c1	-12	1.1%	-2.2	0.1	0.1%	3%	-1
COc1ccccc1-c1nc(SCC(=O)NCC2CCCO2)c2c(=O)n(C)c(=O)n(C)c2n1 (stereo not given)	13	nt	-0.9	nt	nt	15%	nt
COc1ccccc1-c1nn2c(-c3ccco3)nnc2s1	5	-3.6%[38.3 µM]	9.4	0.9	-8.7%	?	-15
CCC1(CC)C(=O)NN(c2ccccc2)C1=O	-1	-0.4%	6.9	0.2	0.5%	13%	4
COCCOC(=O)C1=C(C)NC(=O)NC1c1ccc(-c2cc(Cl)ccc2Cl)o1 (stereo not given)	21	?	10	-0.4	nt	?	-14
O=C1CNC(=O)c2c(nc3n2CCC3)N1	14	-1.6%[38.3 µM]	-2.4	0.8	-1.2%	14%	-7
Cc1cc(C(=O)NNC(=O)Nc2cccc(C(F)(F)F)c2)no1	1	0.1%	3.5	0.9	nt	12%	5
O=C(Nc1cccnc1)c1ccc(Cl)cc1[N+](=O)[O-]	-15	0.6%	-4.7	-0.1	nt	8%	-13
COc1nccnc1NS(=O)(=O)c1ccc(NC(=S)NC(=O)c2ccccc2F)cc1	11	2.6%	-2.0	-0.4	?	-23%	15
COC(=O)c1cc2sccc2n1CC(=O)N1CCCc2ccccc21	5	3.4%[38.3 µM]	5.7	1.7	-3.5%	-11%	28
CC(=O)OC1CCC2C3CCC4=C(CC(F)C(=O)C4)C3CCC12C (stereo not given)	nt	-0.7%	nt	-0.2	0.5%	nt	3
C#CCOCCOCCOCCNc1nc(N2CCN(C(=O)CCCCCCCCCCNC(=O)[C@H]([C@@H](C)CC)n3cc(CCCCN=C(N)N)nn3)CC2)nc(N2CCN(C(=O)CCCCCCCCCCNC(=O)[C@H](CO)n3cc(CCCSC)nn3)CC2)n1	-30	4.3%	nt	-0.7	-4.3%	nt	-13
C=CCn1c(SCC#N)nc2sc(CC)cc2c1=O	-2	0.4%	-0.3	0.7	0.7%	15%	0
C[C@]12c3[nH]c4ccc(Cl)cc4c3CCN1C(=O)[C@@H](CC(=O)NCCN1CCOCC1)C[C@@H]2C(=O)N1CCOCC1	nt	0.4%	nt	-0.7	0.9%	nt	-9
Cc1ccc(-n2[nH]c(=O)c(-c3ccccn3)c2C)cc1	0	-2.6%	-0.2	-0.5	nt	1%	7
Cc1ccc2nc(SCC(=O)Nc3ccc4[nH]c(=O)[nH]c4c3)[nH]c2c1	13	3.1%	nt	0.6	0.3%	nt	0
Cc1csc(SCc2nnc(-c3ccc(Cl)cc3)o2)n1	-6	-0.9%	0.2	5.8	-3.1%	-12%	7

Single values from above:
`Cc1ccc2nc(SCC(=O)Nc3ccc4[nH]c(=O)[nH]c4c3)[nH]c2c1` in TRPV1 potentiator is listed with 13
`Nc1ccccc1NC(=O)CCn1c(=S)[nH]c2ccccc2c1=O` in Sfp PPTase inh is listed with 11%

(listing goes on)
SMILES	TRPV1 potentiator	PINK1 expr mod	Menin MLL FP FL	TRPML1 agonist	ClpP mod	Sfp PPTase inh	TRPML1 blocker
O=C(NCCc1cccc(F)c1)C1CC(O)CN1C(=O)Nc1ccccc1 (stereo not given)	nt	1.3%	nt	0.0	-1.0%	nt	5
O=C(NC(c1ccccc1)c1ccccc1)C1CCCC1	-15	0.3%	3.6	0.3	-3.5%	8%	-9
Cc1onc(-c2ccccc2Cl)c1C(=O)N1CCC(C(N)=O)CC1	-40	1.9%	-3.2	0.9	nt	13%	-6
O=C(COC(=O)c1cc(S(=O)(=O)N2CCOCC2)ccc1F)Nc1ccccc1C(F)(F)F	nt	0.9%	nt	-1.0	-2.7%	nt	-8
CCCCCCCCNCCS(=O)(=O)NCCCCCCCC	nt	8.3%	nt	-0.1	-3.4%	nt	-3
Cc1cccc(S(=O)(=O)NC(=O)C2(C)CCN2C(=O)Cc2ccc(-c3ccccc3)cc2)c1 (stereo not given)	nt	-1.2%	nt	0.2	0.6%	nt	2
O=C1CCN(C(=S)NCCc2ccccc2)CC1	-6	0.9%	-1.6	-1.1	0.0%	5%	4
O=c1c2c3nc4ccccc4nc3n(CCN3CCOCC3)c2ncn1CCN1CCOCC1	nt	1.9%	nt	0.3	-25%	nt	-9
O=C(NCc1ccccc1)NCC12CC3CC(CC(C3)C1)C2	-8	0.4%	-2.2	0.2	-3.0%	16%	-28
Cc1ccc(C(=O)Nc2cccc(C(F)(F)F)c2)cc1NC(=O)c1csc(-c2ccncc2)n1	11	4.0%&6.3%	-4.6	0.3&1.2	8.8%&9.7%	20µM*	-6&-6
COc1cc(NC(=S)Nc2ccc(N(C)C(C)=O)cc2)cc(OC)c1	1	-0.5%	-4.4	0.2	nt	3%	14
O=C(O)c1ccc2c(c1)ncn2C1CCCCCC1	2	0.3%[38.3 µM]	-4.8	0.7	0.0%	89µM*	-2
Cc1c(/C=C2\SC(=O)N(CC(=O)Nc3ccc4c(c3)OCO4)C2=O)c2ccccc2n1C	-3	nt	-4.4	1.4	-0.6%	20%	3
COc1ccc(-c2cc(OC(=O)c3ccc(F)cc3)c3c(C)oc(C)c3c(=O)c2)cc1OC	nt	-1.4%	nt	0.2	0.0%	nt	20
Cc1ccc(S(=O)(=O)NNC(=S)Nc2cccc(C)c2C)cc1	18	-1.3%	-1.2	nt	1.0%	16%	nt
c1coc(-c2nnc(-c3cccs3)o2)c1	-22	-2.9%	1.0	-0.8	32%	6%	5
N/C(=N\OC(=O)c1ccc([N+](=O)[O-])cc1Cl)c1ccccn1	13	-0.6%	-0.1	0.1	nt	3%	0
CCN1CCN(c2ccc(S(=O)(=O)N3CCOCC3)cc2N)CC1	nt	-1.4%	nt	0.5	-0.4%	nt	-11
O=C1CC2(CCN1)CCN(Cc1ccccc1)CC2	nt	0.6%	nt	0.3	0.6%	nt	20
Cc1csc(N(C(=O)CCNC(=O)c2ccc([N+](=O)[O-])cc2)c2ccccc2)n1	-16	1.1%	0.9	0.9	-2.0%	5%	0
c1ccc(Oc2cccc(Oc3ccccc3)n2)cc1	nt	5.1%	nt	1.5	-0.4%	nt	-1
Cc1c(C(=O)c2ccc3c(c2)OCO3)ccc2c1OCO2	nt	8.7%	nt	1.2	-0.4%	nt	9
COc1cccc(NC(=O)CCc2nc(-c3ccc(C(C)(C)C)cc3)no2)c1	nt	1.3%	nt	1.1	4.4%	nt	-21
CCNc1nc(Oc2ccc(C#N)cc2)cc(C(F)(F)F)n1	2	0.6%	-7.5	0.4	nt	11%	3
Cc1cccc(NC(=O)c2c(N)sc3c2CCC(C)C3)c1 (stereo not given)	nt	0.8%	nt	-1.0	2.0%	nt	-4
COCCSc1nc2c(c(=O)[nH]c(=O)n2C)n1CCC(C)C	-17	2.9%	-0.9	-1.2	2.8%	10%	-9
